# From PubChem BioAssay
# GALR2 ag – activates the human galanin receptor 2; activation, %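 (tested at 5 µM)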; 140,000 compounds, 0.48% hits; GALR2-expressing cells, agonist activation read-out; O43603; AID 803;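 active means above mean plus 3 SD of all compounds, about 5% in these data, not always enough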;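 further: 0% = vehicle buffer wells and 100% = reference agonist at full effect; tested in CHO reporter cells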
# Target sequence (O43603 whole entry, looked up): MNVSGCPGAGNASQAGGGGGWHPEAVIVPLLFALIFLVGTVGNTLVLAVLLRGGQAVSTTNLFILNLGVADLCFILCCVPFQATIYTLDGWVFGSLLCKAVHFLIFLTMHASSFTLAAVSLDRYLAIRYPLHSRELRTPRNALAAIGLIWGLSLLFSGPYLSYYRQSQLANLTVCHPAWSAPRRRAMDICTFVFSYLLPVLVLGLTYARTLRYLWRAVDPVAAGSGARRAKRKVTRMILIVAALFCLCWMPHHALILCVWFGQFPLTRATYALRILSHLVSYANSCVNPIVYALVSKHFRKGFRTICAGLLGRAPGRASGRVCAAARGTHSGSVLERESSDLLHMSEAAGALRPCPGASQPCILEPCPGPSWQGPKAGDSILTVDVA
# PKD1 kinase inh – blocks activity of human protein kinase D1; inhibition, %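 (about 10 µM by stock and volumes)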; 200,000 compounds, 0.056% hits; AID 797; PKD1 kinase fluorescence polarization assay;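 active means inhibition of 50% or more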;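 further: controls were vehicle for no effect and a reference inhibitor for full effect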
# RGS16-Gao – RGS16-Galphao interaction regulator (human) | O15492+P09471 | 220,000 compounds, 0.38% hits | binding response (% of control), % at 10 µM | AID 1441 | bead-based flow cytometry RGS16-Galphao binding, fluorescence; actives lie on both sides;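 active means below 25% or above 175%, edge rows of some plates excepted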;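 further: Galphao activated by GDP with aluminum fluoride before binding; 100% = wells without compound and 0% = beads without RGS; some results beyond the cut were filed as inactive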
# Target sequence (O15492 whole entry, looked up): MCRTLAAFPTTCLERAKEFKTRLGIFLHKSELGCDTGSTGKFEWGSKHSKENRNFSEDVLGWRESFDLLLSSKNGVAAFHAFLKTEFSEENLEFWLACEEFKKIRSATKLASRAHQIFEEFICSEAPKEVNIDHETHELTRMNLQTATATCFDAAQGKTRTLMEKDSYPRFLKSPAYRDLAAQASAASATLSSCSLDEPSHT
# Target sequence (P09471 whole entry, looked up): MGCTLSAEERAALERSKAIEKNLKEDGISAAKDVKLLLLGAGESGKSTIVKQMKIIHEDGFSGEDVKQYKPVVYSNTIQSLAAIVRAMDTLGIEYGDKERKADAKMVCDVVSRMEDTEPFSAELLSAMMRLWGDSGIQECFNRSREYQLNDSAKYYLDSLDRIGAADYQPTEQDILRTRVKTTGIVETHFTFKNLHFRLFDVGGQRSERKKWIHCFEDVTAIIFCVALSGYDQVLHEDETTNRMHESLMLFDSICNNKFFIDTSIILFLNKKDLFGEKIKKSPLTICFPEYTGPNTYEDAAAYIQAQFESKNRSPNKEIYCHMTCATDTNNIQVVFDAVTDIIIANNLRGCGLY
# HSV replic up – HSV replication enhancement. maximum fold increase. 220,000 compounds, 0.005% hits. HSV replication augmentation in cells, fold increase;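 active means peak rise of 1.5-fold or more in the series; inconclusive means self-fluorescent or not available for retest; tested in PC3 cells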;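 further: first round at 10 µM; read as green reporter fluorescence; hits show the peak of a series up to 25 µM; 1 = signal of infected wells without compound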
# Insulin prom inh – TRM-6 insulin promoter activity inhibition | TRM-6 cells (human fetal islet line), insulin promoter-eGFP reporter, imaging; reporter expression induced with tamoxifen | inhibition, % at 2 µM | 130,000 compounds, 0.9% hits;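 active means inhibition above the mean plus 3 SD, with well images judged a real hit on visual review, cut at about 60% in these data, passing the limit was not always enough; inconclusive means inhibition over the cutoff but images rejected on review; inactive means inhibition not above the cutoff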
# Insulin prom inh cell count – recorded beside Insulin prom inh, whose call it bears; normalized cell count, %; measured here: cell count, toxicity; reference of the scale not given here;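 cells exposed to compound for 48 h; stained nuclei by imaging scaled within each plate; lower means fewer cells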
# HSV replic up primary fold – also measured in HSV replic up; calls as there; fold increase; compound at 10 µM; measured here: primary screen fold increase 10 uM; tested in PC3 cells;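 GFP signal in the first replicate; 1 = infected wells without compound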
# An asterisk follows results filed as active; i = inactive; ? = inconclusive; · = no result given.
SMILES,GALR2 ag,PKD1 kinase inh,RGS16-Gao,HSV replic up,HSV replic up primary fold,Insulin prom inh,Insulin prom inh cell count
CC(C)Cn1cc(C(=O)NC2CCN(Cc3ccccc3)CC2)c2c3ccccc3n(C)c2c1=O,-2.4,-2.1,98.2,·,·,·,·
Cc1cc(C)c(NC(=O)CSc2ccc(-c3cccnc3)nn2)c(C)c1,·,-0.6,96.9,i,0.92,50.0,178.5
COc1ccc(CNC(=O)CCSCc2ccccc2Cl)c(OC)c1,-0.4,-1.6,115.8,i,1.1,-3.3,70.9
CCOCCn1c(CN2CCN(c3ccc(F)cc3)CC2)nc2c1c(=O)n(C)c(=O)n2C,-2.5,4.3,110.2,i,0.91,·,·
O=C(c1ccccc1)N(Cc1ccc(F)cc1)C1CCS(=O)(=O)C1 (stereo not given),-0.3,3.4,109.9,i,0.92,·,·
CCCc1cc(=O)n2[nH]c(-c3ccc(C)cc3)cc2n1,-2.0,0.8,102.3,i,0.91,25.9,89.8
CCN(CC(=O)NCc1ccc(F)cc1)Cc1nc2ccccc2c(=O)[nH]1,0.0,3.6,101.4,i,1.04,-36.4,73.7
O=C(COc1ccccc1)NC(=S)Nc1cccc(NC(=O)c2ccccc2Cl)c1,-0.1,-2.7,99.2,i,0.92,·,·
O=C1CNC(=O)/C1=C\c1ccc(O)cc1,-0.8,-8.0,99.6,i,1.02,-8.3,112.0
CCc1ccccc1-n1c(SCC(=O)Nc2ccc3c(c2)OCCO3)nc2[nH]ncc2c1=O,1.0,0.3,101.3,i,1.08,·,·
COCCNC(=O)C1CCN(S(=O)(=O)N2CCC3(CC2)OCCO3)CC1,-1.8,-11.8,99.1,i,0.85,-37.5,122.8
CCCC(=O)N(c1ccc(OCC)cc1)C1C=CS(=O)(=O)C1 (stereo not given),-0.8,-2.0,105.8,i,1.01,18.8,145.7
O=C(Cn1cnc2cc([N+](=O)[O-])ccc2c1=O)NCCc1ccc(Cl)cc1,·,-0.8,96.4,i,0.91,·,·
CNS(=O)(=O)c1cc(C(=O)NCc2ccco2)ccc1Cl,-4.2,-6.2,99.2,i,1,0.0,71.6
Cn1c(-[n+]2c(-c3ccccc3)cc(-c3ccccc3)cc2-c2ccccc2)nc2c([N+](=O)[O-])cccc21,-0.9,-6.4,96.1,i,0.94,7.1,124.2
CCOC(=O)c1cccnc1NC(=O)c1ccncc1,0.0,-0.8,64.0,i,0.93,36.5,102.1
COc1ccc2c(C#N)c3ccccn3c2c1,·,0.3,101.3,i,1.18,·,·
Cc1ccc(NC(=O)c2cc(NC(=O)c3ccccc3C(=O)O)ccc2N2CCCCC2)cc1,·,-1.3,102.0,i,0.85,-5.6,187.4
Cc1c(C(=O)c2ccccc2)c(=O)n(C)c(=O)n1C,·,-8.0,102.3,i,1.04,·,·
COc1ccc(NC(=O)CSc2nnc(C(C)C)n2N)cc1,-0.4,-13.0,53.4,i,0.88,73.3,82.3
O=S(=O)(Nc1nc2ccccc2nc1N1CCN(c2ccccn2)CC1)c1ccc(Cl)cc1,-1.9,0.2,94.3,i,1.18,18.6,108.7
O=C(NCC1CCCO1)c1cc2c(s1)CCC2 (stereo not given),·,-2.0,103.5,i,0.89,-8.3,101.7
CCN(CC)CCNc1nc(-n2nc(C)cc2C)nc2sc3c(c12)CC(C)(C)OC3,·,·,106.2,i,0.65,·,·
Cc1cc(S(=O)(=O)NCc2ccc(S(N)(=O)=O)cc2)c(C)s1,-1.2,-0.4,102.8,i,1.01,·,·
CCOC(=O)c1c(NC(=O)CN2CCOCC2)sc(C(=O)NC)c1C,-0.9,2.5,89.1,i,1.04,7.2,101.4
SMILES,GALR2 ag,PKD1 kinase inh,RGS16-Gao,HSV replic up,HSV replic up primary fold,Insulin prom inh,Insulin prom inh cell count
O=C(CN1C(=O)c2cccc3cccc(c23)C1=O)N1CCCCC1,-0.3,-5.0,102.8,i,0.97,42.9,77.9
CCn1c(-c2ccccc2)csc1=Nc1ccc(O)cc1,·,-2.4,104.6,i,1.06,·,·
COC(=O)c1ccc2c(=O)n(NC(C)=O)c(=S)[nH]c2c1,2.1,-9.2,91.6,i,1.16,71.4,107.4
c1ccc(-c2cn(-c3ccccc3)c3ncnc(N4CCCCC4)c23)cc1,·,-4.7,106.3,i,0.93,-14.3,63.4
C=CCn1cnc2scc(-c3ccc(C)c(C)c3)c2c1=O,·,-4.9,102.1,i,1.03,·,·
O=[N+]([O-])c1c(NCCO)cc(N2CCN(Cc3ccc4c(c3)OCO4)CC2)c2nonc12,0.6,-4.8,97.9,i,0.93,-59.3,118.9
Cc1cc(C)nc(SCc2nc(N)nc(-c3ccccc3O)n2)n1,-2.5,-3.3,118.4,i,0.79,36.4,93.0
Cn1cccc1/C=N/NC(=O)c1cccnc1,-1.8,-4.0,107.5,i,0.64,-135.3,80.3
Cc1ccccc1CNC(=O)Cc1ccccc1[N+](=O)[O-],-2.4,-10.2,108.4,i,0.9,-11.1,113.7
CCOc1ccc(NC(=O)N[C@@H](CCSC)C(=O)OC)cc1,-2.4,-3.2,102.6,i,0.88,52.8,34.4
CCOC(=O)c1ccc2nc(CCC(=O)N[C@H](C(=O)OC)C(C)C)c(=O)n(CC)c2c1,·,11.6,100.5,i,0.93,·,·
CC(=O)Nc1ccc(C(=O)OCC(=O)NCc2ccccc2)cc1,·,-5.1,100.7,i,0.86,29.4,78.5
CCCN1C2CCCC1CC(NC(=O)c1ccccc1F)C2 (stereo not given),-1.8,-1.8,97.8,i,0.82,-2.9,131.3
O=C(CSc1ncc(-c2ccccc2)[nH]1)Nc1ccccc1,-1.0,-0.2,71.5,i,0.96,-20.0,69.8
Cc1nc2ccc(NC(=O)COc3cccc(F)c3)cc2s1,·,3.8,92.1,i,0.93,·,·
COc1ccccc1CNC(=O)C(=O)NCC(c1ccco1)N1CCOCC1 (stereo not given),·,-5.6,92.3,i,0.91,22.2,95.6
c1csc(C2C3=C(Nc4ncnn42)c2ccccc2OC3)c1 (stereo not given),-1.0,-0.4,94.2,i,1.06,0.0,104.1
CCN(CC)C(=O)c1sc2c(c1C)c(=O)n(-c1ccc(OC)cc1OC)c(=O)n2CC(=O)c1ccccc1,·,-4.7,104.5,i,0.94,-7.1,41.4
CCC(=O)Nc1nc(-c2cc([N+](=O)[O-])cs2)cs1,·,-4.2,116.3,i,0.87,-135.7,28.9
CC1(C)C2CC=C(/C=N/NC(=O)c3ccc(Cl)cc3)C1C2 (stereo not given),-0.3,-3.5,111.4,i,0.85,3.3,103.9
CCN(CC)S(=O)(=O)c1ccc(NC2=NS(=O)(=O)c3ccccc32)cc1,-2.2,-0.8,105.8,i,0.93,6.2,101.4
C=CCOC(=O)/C=C/C(=O)NC(N)=O,·,·,87.8,i,1.06,·,·
O=[N+]([O-])c1ccc2[nH]c(O)c(N=NC3CS(=O)(=O)CC3O)c2c1 (stereo not given),·,·,93.5,i,0.96,·,·
C[n+]1ccccc1COc1ccc(C(C)(C)C)cc1,-0.7,-17.8,96.6,i,0.97,14.3,96.8
O=S1(=O)CCC(SCc2nc3sccn3c2Br)C1 (stereo not given),-1.3,-0.7,96.0,i,0.96,·,·

# A few values from the list:
# HSV replic up primary fold result of `Cc1nc2ccc(NC(=O)COc3cccc(F)c3)cc2s1` reads 0.93
# PKD1 kinase inh result of `c1ccc(-c2cn(-c3ccccc3)c3ncnc(N4CCCCC4)c23)cc1` reads -4.7

# Other compounds follow:
SMILES,GALR2 ag,PKD1 kinase inh,RGS16-Gao,HSV replic up,HSV replic up primary fold,Insulin prom inh,Insulin prom inh cell count
CC1CCN(CC(=O)Nc2ccccc2-c2ccccc2)CC1,-1.6,-2.7,106.8,i,0.92,-364.7,61.8
CCOC(=O)c1oc2ccc(S(=O)(=O)N3CCC(C)CC3)cc2c1C,-0.4,1.3,101.3,i,0.96,·,·
N#Cc1c(N2CCN(C(=O)c3ccccc3Cl)CC2)nc(-c2ccccc2)c2c1CCCC2,-0.4,-7.2,100.8,·,·,·,·
OC(c1ccc(OCc2ccccc2)cc1)c1nnc(-c2ccccc2)o1 (stereo not given),-1.8,0.7,105.8,·,·,1.8,119.3
O=C(O)CSc1c(-c2ccccc2)c2cc(Cl)ccc2[nH]c1=O,1.2,4.0,99.3,i,0.95,·,·
Nc1cccc2c1C(=O)N(CC(=O)NC13CC4CC(CC(C4)C1)C3)C2=O,·,-1.2,100.1,i,1.02,·,·
CCCCn1c(N)c(NCC(C)C)c(=O)[nH]c1=O,-1.4,4.2,98.0,i,1.15,·,·
CC(=O)/C(N=Nc1ccc(-n2ccc(C(F)(F)F)n2)cc1)=C(\C)O,·,·,100.3,i,1,·,·
CCc1nnc(NC(=O)CSc2nc3ccc(OC)cc3[nH]2)s1,·,0.1,109.7,i,0.88,·,·
CC(=O)c1cccc(NC(=S)NC(=O)c2ccc(Br)cc2)c1,-0.7,1.6,102.8,i,0.93,13.2,123.4
O=C(Nc1cccc([N+](=O)[O-])c1)C12CC3CC(C1)CC(n1cnc([N+](=O)[O-])n1)(C3)C2,-1.5,61.9*,100.7,i,0.95,·,·
Cc1cccc(-n2ncc3c(NCCN4CCOCC4)ncnc32)c1,-1.1,-1.2,101.7,i,0.97,-22.2,104.4
CN(O)/C=c1/ccc2c(n1)C(=O)C=CC=2,-2.5,0.4,101.8,i,0.85,·,·
S=C(Nc1ccccc1Cl)N(Cc1ccccc1)Cc1cccnc1,·,-1.1,106.5,i,1.17,-66.7,54.1
O=C(CSc1cc([N+](=O)[O-])cc(S(=O)(=O)Cc2ccccc2)c1)NC1CC1,-1.8,-3.6,104.0,i,0.75,28.1,104.8
C/C(=N/NS(=O)(=O)c1ccc(Br)cc1)c1ccc(C)o1,-2.2,-8.2,74.8,i,0.89,-40.6,25.1
Cc1cccc(-n2c(SCC(=O)N3CCCC3)nc3n[nH]c(C)c3c2=N)c1,-1.1,-2.3,54.1,i,0.95,9.3,87.5
Cc1noc2ncnc(Oc3ccccc3Cl)c12,·,4.3,97.6,i,0.97,·,·
CCCCn1c(=NC(=O)c2ccco2)c(C(=O)OCC)cc2c(=O)n3ccccc3nc21,6.6,-13.9,79.4,i,0.88,35.7,137.5
COc1ccc(OCC(=O)N2N=C(C)CC2(O)C(F)(F)F)cc1 (stereo not given),·,1.7,98.6,i,0.96,·,·
COC(=O)c1sccc1NC(=S)N1CCN(c2ccccc2)CC1,-0.6,-9.2,108.2,i,0.97,19.2,130.4
COC(=O)/C(C#N)=C1/C=Cc2ccccc2N1C,-2.7,3.2,101.5,i,0.86,81.2*,194.3*
COc1ccccc1CNC(=O)c1csc2c1CCCC2,·,-1.9,110.2,i,1.1,0.0,58.0
FC(F)Sc1ccc(NC(=S)NC2CCC(NC(=S)Nc3ccc(SC(F)F)cc3)CC2)cc1 (stereo not given),-3.8,-5.1,107.1,?,·,-9.1,111.6
O=C(NC(=S)Nc1ccc(CN2CCOCC2)cc1)c1ccc([N+](=O)[O-])cc1,0.1,5.9,104.7,i,1.12,·,·

# Quoted at random: seven entries already listed, in no set order.
SMILES,GALR2 ag,PKD1 kinase inh,RGS16-Gao,HSV replic up,HSV replic up primary fold,Insulin prom inh,Insulin prom inh cell count
CCCCn1c(N)c(NCC(C)C)c(=O)[nH]c1=O,-1.4,4.2,98.0,i,1.15,·,·
Cc1cccc(-n2c(SCC(=O)N3CCCC3)nc3n[nH]c(C)c3c2=N)c1,-1.1,-2.3,54.1,i,0.95,9.3,87.5
COC(=O)c1sccc1NC(=S)N1CCN(c2ccccc2)CC1,-0.6,-9.2,108.2,i,0.97,19.2,130.4
COc1ccccc1CNC(=O)c1csc2c1CCCC2,·,-1.9,110.2,i,1.1,0.0,58.0
Nc1cccc2c1C(=O)N(CC(=O)NC13CC4CC(CC(C4)C1)C3)C2=O,·,-1.2,100.1,i,1.02,·,·
O=C(NC(=S)Nc1ccc(CN2CCOCC2)cc1)c1ccc([N+](=O)[O-])cc1,0.1,5.9,104.7,i,1.12,·,·
C/C(=N/NS(=O)(=O)c1ccc(Br)cc1)c1ccc(C)o1,-2.2,-8.2,74.8,i,0.89,-40.6,25.1

# Next records follow:
SMILES,GALR2 ag,PKD1 kinase inh,RGS16-Gao,HSV replic up,HSV replic up primary fold,Insulin prom inh,Insulin prom inh cell count
CC(=O)c1cn(Cc2ccccc2)c(=O)[nH]c1=O,·,3.6,97.3,i,1.12,·,·
Cc1ccc(SCCC(=O)NCCSCc2ccco2)cc1,·,-1.3,101.0,i,0.97,·,·
COc1ccc2c(c1)CC/C2=N\OC(=O)c1ccccc1OC,·,-1.0,100.0,i,1.03,-17.6,105.2
CCSc1nnc(NC(=O)[C@@H](NC(=O)c2cc(OC)cc(OC)c2)C(C)C)s1,·,-1.9,101.4,i,0.91,·,·
Cc1cc(C)nc(SCc2n[nH]c(=S)n2C)n1,-0.9,-5.9,96.4,i,0.96,-13.9,203.0
Cc1cccc(-c2noc(CN(C(=O)C34CC5CC(CC(C5)C3)C4)C(C)C)n2)c1,-0.3,1.0,101.1,i,0.91,-48.6,110.0
